Bead autofluor = compound fluorescence in toxin protease inhibitor counterscreen; compound autofluorescence counterscreen, microsphere flow cytometry; stronger effect = higher value; fluorescence intensity (concentration not given with the values); hit rate 3.1% among 360,000;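 active means at least 3 SD above the mean of all compounds, about 16000 in these data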;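 further: 100 nL of 1 mM stock went into each well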
Starred values were filed as active, the others as inactive.

SMILES	Bead autofluor
CCC(c1nnnn1-c1ccc2c(c1)OCCO2)N1CCN(c2ccccn2)CC1 (stereo unspecified)	5315
C[C@@H]1CN([C@H](C)CO)C(=O)c2c(c3ccccc3n2C)-c2ccccc2CO[C@H]1CN(C)C(=O)NC1CCCCC1	3539
FC(F)(F)c1cccc(N2CCCCC2)c1	5989
COCCNC(=O)C1(C)CCCN(C(=O)c2ccc(N(C)C)cc2)C1 (stereo unspecified)	3800
Cn1cccc([N+](=O)[O-])c1=O	2832
CSc1ccc(CN2C(=O)C(C)Oc3c(C(C)=O)cccc32)cc1 (stereo unspecified)	4004
CN1C(=O)c2ccccc2Cc2c(NCc3ccccc3)ncnc21	3713
CC(C)Oc1cc(F)ccc1-c1cc(C(=O)Nc2ccc(C(C)C)cc2)[nH]n1	4132
Cc1cccc(-c2nnc(C(C)Nc3cccc(C(=O)NC4CC4)c3)o2)c1 (stereo unspecified)	3767
O=C(NCc1ccccc1)c1cc(C2CCCCN2C(=O)c2ccc3c(c2)CCO3)on1 (stereo unspecified)	3760
CCCCCCCCN1C(=O)[C@H](CC(=O)NCCc2ccccc2OC)C[C@@]2(C(=O)OCC)CCCC=C12	6012
COc1ccc([C@H]2C[C@@H](O)[C@H](n3cc(COC(=O)c4ccccc4)nn3)CN2CC2CCCCC2)cc1	3019
COc1ccc(C=C2Cc3ccccc3C2=O)cc1	4432
N#Cc1ccc(-c2nc3c4ccccc4ccn3c2Cc2ccsc2)cc1	6300
CCOC(=O)C1CCCN(C(=O)c2cccc(OC(F)(F)F)c2)CC1 (stereo unspecified)	3986
CN1CCN(c2ccc3c(c2)OC[C@H](Cc2ccccc2)NS3(=O)=O)CC1	5445
CCOC1=C2CN(S(=O)(=O)c3ccc(C)cc3)[C@H](c3ccccc3)C[C@@H]2N(S(=O)(=O)c2ccc(C)cc2)[C@H](c2ccccc2)C1	6072
O=S(=O)(c1cccc(C(F)(F)F)c1)N1Cc2ccccc2-n2nncc2C1	3317
COc1cccc(C(O)c2nc(-c3ccc(F)c(Cl)c3)cs2)c1 (stereo unspecified)	2817
Cc1ccc(NC(=O)[C@@H]2O[C@H](CO)[C@H](O)[C@H](O)[C@H]2O)cc1C(F)(F)F	2990
Cn1nc(C(C)(C)C)cc1C(=O)N1CCCCC1c1cc(C(=O)NCc2ccccc2)no1 (stereo unspecified)	3560
CC(C)(C)c1ccc(CC(=O)N2CCC2(C)C(=O)Nc2ccc(F)cc2F)cc1 (stereo unspecified)	3114
NN=C1C(Cl)=C(Cl)C(Cl)=C1Cl	3646
CCOC(=O)[C@]12Cc3ccc(C)cc3[C@H]1N(C1CCCCC1)C(=O)c1cc(OC)ccc12	5868
Cc1[nH]c(=O)sc1C(=O)NCc1ccc([N+](=O)[O-])cc1	5590
O=C1NCN(c2ccccc2)C12CCN(C(c1cccs1)c1nnnn1-c1ccc3c(c1)OCCO3)CC2 (stereo unspecified)	5627
O=C(NCc1ccc(F)cc1)c1cc(C2CCCCN2S(=O)(=O)c2cccc3cccnc23)on1 (stereo unspecified)	3847
Cc1ccccc1NC(=O)C(C)OC(=O)CCC(=O)c1ccccc1 (stereo unspecified)	2931
OC[C@@H]1CN(Cc2cccc3ccccc23)C[C@H](n2cnc3c(NCc4ccco4)ncnc32)O1	3720
Cc1ccc(Cn2cc(CN3CC(N4CCN(C)CC4)CS3(=O)=O)nn2)cc1 (stereo unspecified)	5633
Cc1ccn2c(=S)[nH]nc2c1	3921
CCNC(=O)C1(C)CCCN1C(=O)c1cnc2ccccc2n1 (stereo unspecified)	3585
Clc1ccc2nc(-c3ccccc3)c(Cc3ccsc3)n2c1	6531
CSc1ccc(Cn2c(C)c(C(=O)NCc3cccc(C(F)(F)F)c3)sc2=O)cc1	5046
C[C@H]1CN([C@@H](C)CO)C(=O)CCCn2nncc2CO[C@H]1CN(C)S(=O)(=O)c1ccc(F)cc1	3846
COc1ccc(Cc2c(-c3cccc(Br)c3)nc3c(C)cc(Br)cn23)c(C)c1	6003

Part of the list above, with bars between the fields.
SMILES | Bead autofluor
CSc1ccc(CN2C(=O)C(C)Oc3c(C(C)=O)cccc32)cc1 (stereo unspecified) | 4004
CCC(c1nnnn1-c1ccc2c(c1)OCCO2)N1CCN(c2ccccn2)CC1 (stereo unspecified) | 5315
CCOC(=O)C1CCCN(C(=O)c2cccc(OC(F)(F)F)c2)CC1 (stereo unspecified) | 3986
Cc1[nH]c(=O)sc1C(=O)NCc1ccc([N+](=O)[O-])cc1 | 5590
FC(F)(F)c1cccc(N2CCCCC2)c1 | 5989

Following part:
SMILES	Bead autofluor
COc1ccc(Cl)cc1-c1cc(C(=O)Nc2ccccc2)[nH]n1	2972
Cc1c(C(=O)c2ccc(F)cc2F)c2ccccn2c1CCc1ccccn1	4107
CC(C)n1nnnc1C1c2ccccc2C(=O)N1Cc1ccc(F)cc1 (stereo unspecified)	4067
CCCS(=O)(=O)NC(=O)C1(C)CCN(C(=O)c2ccc3c(c2)OCO3)C1 (stereo unspecified)	3045
CC1(C(=O)NC2CCN(Cc3ccccc3)CC2)CCN1Cc1cc2ccccc2o1 (stereo unspecified)	3054
CCC(=O)N1CCCC1(C)C(=O)Nc1ccc2c(c1)CCN2C(C)=O (stereo unspecified)	4078
O=C(NCCN1CCC(n2c(=O)[nH]c3ccccc32)CC1)c1cccnc1	5456
COc1cccc(N(CC(=O)N2CCN(Cc3ccccc3)CC2)S(C)(=O)=O)c1	3833
CCCCNc1c(CCc2ccccc2)nc2nc(C)cc(C)n12	11516
COc1ccc(NC(=O)C2Cc3c(-c4cccc(NC(C)=O)c4)ccnc3O2)cc1OC (stereo unspecified)	3968
C=C1C(=O)OCC2C(C(=O)O)=CC3C(C)C(C)=CC123 (stereo unspecified)	3517
COC(=O)c1cc(=O)nc(NN=Cc2ccc(OC)cc2)s1	5518

Three of the compounds above, in markdown:
| Molecule | Bead autofluor |
| --- | --- |
| CC(C)Oc1cc(F)ccc1-c1cc(C(=O)Nc2ccc(C(C)C)cc2)[nH]n1 | 4132 |
| Cc1cccc(-c2nnc(C(C)Nc3cccc(C(=O)NC4CC4)c3)o2)c1 (stereo unspecified) | 3767 |
| O=C(NCc1ccccc1)c1cc(C2CCCCN2C(=O)c2ccc3c(c2)CCO3)on1 (stereo unspecified) | 3760 |

(further entries)
SMILES	Bead autofluor
COc1ccc(Cl)cc1NC(=O)CCCn1c(=O)c2cccn2c2cccnc21	3804
COc1ccc2c(c1)Cc1c-2cc(Br)c(N)c1Br	3592
CC[C@@H]1CC2=C(C(=O)OC(C)(C)O2)[C@@H](c2ccc(Cl)cc2)O1	4306
COc1ccc(C=CC(=O)c2ccc(OCc3ccccc3)c(OC)c2)cc1OC	2870
Cc1cccc(NC(=O)CNC(=O)[C@H]2O[C@@H](n3ccc(N)nc3=O)[C@H](O)[C@@H]2O)c1C	6680
COC(=O)[C@]12CCCCC=C1N(CCC1=CCCCC1)C(=O)[C@H](CC(=O)NCC1CCCCC1)C2	4277
CC1(C)OCC(CNC(=O)c2[nH]c(C(F)(F)F)nc2-c2ccccc2)O1 (stereo unspecified)	4346
C[C@@H]1CN([C@@H](C)CO)S(=O)(=O)c2ccc(Br)cc2O[C@H]1CN(C)C(=O)c1ccc2c(c1)OCO2	3333
COCCNc1nc(-c2ccccc2F)c2sc(-c3ccccc3)cc2n1	3582
Cc1ccc(OCCC(=O)OCC(=O)NCCNC(=O)COC(=O)CCOc2ccc(C)cc2)cc1	2964
Cc1ccc(N2CCN(S(=O)(=O)c3c(C)nc4sccn4c3=O)CC2C)cc1 (stereo unspecified)	5216
CN(C(=O)CSc1nnc(C(F)(F)F)n1C)c1c(N)n(Cc2ccccc2)c(=O)[nH]c1=O	2814
Clc1cccc(-c2cccc3nccn23)c1	3032
CC1(C(=O)NCC2CC2)Cc2c(-c3cccc(C(N)=O)c3)ccnc2O1 (stereo unspecified)	2956
C[C@@H]1CCCCO[C@H](CN(C)C(=O)Cc2ccccc2)[C@H](C)CN([C@@H](C)CO)C(=O)c2cc(NC(=O)Nc3ccc(F)cc3)ccc2O1	3383
CCCN1CCC(C(=O)NC(c2ccc(F)cc2)c2ncccc2C)CC1 (stereo unspecified)	3387
CC1=C(C(=O)N(C)C)CC(CC(=O)NC2CCCC2)C(=O)N1Cc1ccccc1 (stereo unspecified)	3592
CCCCCC(=O)N1C[C@H](O)[C@@H](n2cc(COC(=O)c3ccccc3)nn2)C[C@@H]1c1ccc(C)cc1	3421
COC(=O)C1CCN(C2CN(Cc3ccc([N+](=O)[O-])cc3)S(=O)(=O)C2)CC1 (stereo unspecified)	5866
Cn1ccc2c(N(Cc3ccccc3)Cc3ccccc3)cc3c(c21)C1CCC3C1 (stereo unspecified)	5199
CC1(C(=O)NS(=O)(=O)c2ccc(Br)cc2)CCN1C(=O)C1(c2ccccc2)CC1 (stereo unspecified)	2860
CC1(C(=O)NS(=O)(=O)c2ccccc2Cl)CCN1C(=O)C1CC1 (stereo unspecified)	2901
CC(C)c1ccc(NC(=O)c2ccc(-c3ccnn3C)c3ccoc23)cc1	3715
COc1ccc(CCC(=O)OCC(=O)NC2CCCC2)cc1OC	3514
CCc1nc2ccc(C(=O)Nc3ccc(NC(C)=O)cc3)cn2c1N(C)C(=O)Cc1ccccc1	3834
CC1(C)CC(=O)C=C(c2ccc(-c3ccc4[nH]ccc4c3)cc2)C1=O	3245
Cc1c(Cl)cccc1N1C(=O)CC(Sc2ccccc2N)C1=O (stereo unspecified)	3459
CCOC(=O)C1(C)CCCCN1C(=O)c1cccs1 (stereo unspecified)	3408
CN1CCN(C(=O)c2cccc3c(-c4ccc(F)c(F)c4)coc23)CC1	3440
Cc1ccc([C@@H]2CC(=O)[C@@H]3CN(S(=O)(=O)c4ccc(C)cc4)[C@H](c4ccccc4)C[C@@H]3N2S(=O)(=O)c2ccc(C)cc2)cc1	5389
COc1ccc(C(C)(O)c2nc(-c3ccc(S(C)(=O)=O)cc3)cs2)cc1 (stereo unspecified)	2726
CS(=O)(=O)Nc1ccccc1-c1cccc2nccn12	3701
O=C(Nc1ccc(Cl)cc1)c1ccc2sc([C@@H]3O[C@H](CO)[C@H](O)[C@H](O)[C@H]3O)nc2c1	3816
COCCNC(=O)C1(C)CCCN(Cc2ccc(-c3ccccc3)o2)C1 (stereo unspecified)	3043
O=C(c1ccccc1)c1nn(-c2ccccc2)c(=O)cc1-c1ccccc1	5856
Cc1ccc(C)c(NS(=O)(=O)c2ccc(-n3cccn3)cc2)c1	2955

The closing 5 compounds of the section above are carried over, then new ones follow.
SMILES	Bead autofluor
CS(=O)(=O)Nc1ccccc1-c1cccc2nccn12	3701
O=C(Nc1ccc(Cl)cc1)c1ccc2sc([C@@H]3O[C@H](CO)[C@H](O)[C@H](O)[C@H]3O)nc2c1	3816
COCCNC(=O)C1(C)CCCN(Cc2ccc(-c3ccccc3)o2)C1 (stereo unspecified)	3043
O=C(c1ccccc1)c1nn(-c2ccccc2)c(=O)cc1-c1ccccc1	5856
Cc1ccc(C)c(NS(=O)(=O)c2ccc(-n3cccn3)cc2)c1	2955
O=C(Nc1ccccc1F)c1ccc2sc([C@H]3C[C@H](O)[C@@H](CO)O3)nc2c1	3382
O=C(Nc1ccn(CCCNCCc2ccccn2)c(=O)n1)OCc1ccccc1	2800
COc1cc(C(=O)NC(=S)NCc2ccncc2)cc(OC)c1OC	3590
CCCc1c(-c2ccccc2F)ncn1Cc1ccccc1OC	6356
COc1ccc(-c2ccc3[nH]c4c(c3c2)CCN2C(=O)[C@@H]([C@H](C)O)[C@@H](N(C)C(=O)Nc3ccc(F)cc3)C[C@@H]42)cc1	2829
CN(C)c1ccc(C=C2C=C(c3ccccc3)OC2=O)cc1	3695
CC(C)(C)Cc1c(-c2ccc(C#N)cc2)nc2c(Cl)cc(C(F)(F)F)cn12	5699
CC1(C(=O)Nc2cccc(NS(C)(=O)=O)c2)Cc2c(-c3cccc(C(N)=O)c3)ccnc2O1 (stereo unspecified)	3940
COCCN(C(=O)COC(=O)c1c(C)nn(-c2ccccc2)c1C)c1c(N)n(Cc2ccccc2)c(=O)[nH]c1=O	4023
CCCCCCCCC(=O)c1c(OC)oc(C=O)cc1=O	3879
O=S1(=O)CC(N2CCSCC2)CN1Cc1cn(Cc2ccc(C(F)(F)F)cc2)nn1 (stereo unspecified)	5630
O=C(NCCOc1ccccc1)N1[C@H]2CC[C@@H]1C=C(c1ccc(F)cc1OCc1ccccc1)C2	3710
Cc1c(C(=O)NCc2cccc([N+](=O)[O-])c2)sc(=O)n1Cc1ccc(F)cc1	5824
COc1ccc(-c2ccc3[nH]c4c(c3c2)CCN2C[C@@H]([C@H](C)OC(=O)Nc3cc(Cl)cc(Cl)c3)[C@@H](N(C)C(=O)Nc3cc(Cl)cc(Cl)c3)C[C@@H]42)cc1	4847
CN(Cc1ccccc1)C(=O)[C@@H]1CCCN1	4225
COc1cccc(NC(=O)C2(C)CCN2Cc2ccc(OC(C)C)cc2)c1 (stereo unspecified)	3444
CC1(C(=O)NCc2ccc(F)c(F)c2)Cc2c(-c3cccc(C(N)=O)c3)ccnc2O1 (stereo unspecified)	3576
O=C1NC[C@H](CCCCN2C[C@H](Cc3ccc(O)cc3)N(Cc3ccccc3)C(=O)C2=O)N(CCc2ccccc2)C1=O	5369
CC1=C(C(=O)N(C(C)C)C(C)C)CC(CC(=O)NC2CCCCC2)C(=O)N1Cc1ccc(F)cc1 (stereo unspecified)	5911
CCc1nc2c(OCCOc3ccc(F)cc3)cccn2c1N(C)C(=O)c1ccco1	3592
O=C(Nc1ccc(F)c(Cl)c1)c1ccc2nc([C@@H]3O[C@H](CO)[C@H](O)[C@H](O)[C@H]3O)[nH]c2c1	3806
CCOC(=O)C1=CCC(C(C)(C)C)N(S(=O)(=O)c2ccc(C)cc2)C1 (stereo unspecified)	5969
Cc1cccc(C)c1C(O)c1ncc(-c2cccc(F)c2)[nH]1 (stereo unspecified)	3129
CN(C)CCN1CCN(C2CN(C3CCCC3)S(=O)(=O)C2)CC1 (stereo unspecified)	5709
O=C1NC[C@H](CCCCN2C[C@H](Cc3ccc(O)cc3)N(CCC3CCCCC3)C(=O)C2=O)N(CC2CCCCC2)C1=O	5783

Screens as filed in PubChem BioAssay.

The list is partial. The share of hits here may be higher or lower than overall.
